D2 potentiator: human D2 receptor positive allosteric modulation | P14416 | DiscoveRx D2 beta-arrestin cells, luminescence, 90 min; 100% = 57 uM dopamine signal | potentiation, % (concentration not given with the values) | 360,000 compounds, 0.23% hits; active = potentiation of 50% or more; inconclusive = 30% to 50%; inactive = 30% or less;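 also: tested on top of an EC20 dose of dopamine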
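PathHunter beta-arrestin assay in DiscoveRx D2 cells. Compounds were added with an EC20 of dopamine (50 nM final) for 90 min at 37 deg C. Luminescence was read 1 h after detection reagent, with 57 uM dopamine as the EC100 control.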
CtBP-E1A inh: blocks the CtBP interaction with E1A; AlphaScreen GST-E1A/His-CtBP binding, 1536-well; active compounds read low; control for the full effect not named in the record; activity change, % (no concentration beside the values); 340,000 compounds, 0.49% hits; AID 651724; in the data active means activity change below about -65%; inconclusive means about -30% to -65%; inactive means above about -30%; also: % is scaled to controls: 0 for no effect and ±100 for the full control effect
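Homogeneous bead-based format: GST-tagged E1A captured on glutathione donor beads, His-tagged CtBP on nickel acceptor beads; compounds precede bead addition by 2 h at 37 °C.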
TRPV1 potentiator: potentiators of human vanilloid receptor 1 (TRPV1). Q8NER1. TRPV1-expressing cells, Fluo-8 calcium influx, capsaicin EC20 potentiation; host cell line not named in the record; control for the full effect not named in the record. potentiation, % at 8.33 µM. 320,000 compounds, 0.02% hits. AID 540277; active means potentiation above 80%; inconclusive means 30% to 80%; inactive means below 30%; also: 0% is about no effect
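Fluo-8 calcium influx in TRPV1-expressing cells, kinetic read (ex 480/em 520 nm). Compound added and read 3 min for agonist activity, followed by capsaicin at EC20 final and 2 min further read for enhancement.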
Six1-Eya2 inh: blocks human Six1 binding to Eya2; Q15475+O00167; AlphaScreen GST-Six1/His-Eya2 binding, biochemical; active compounds read low; control for the full effect not named in the record; activity change, % (no concentration beside the values); 360,000 compounds, 0.56% hits; in the data active = activity change below about -65%; inconclusive = about -30% to -65%; inactive = above about -30%; also: % is scaled to controls: 0 for no effect and ±100 for the full control effect
Target sequence (O00167 whole entry, looked up): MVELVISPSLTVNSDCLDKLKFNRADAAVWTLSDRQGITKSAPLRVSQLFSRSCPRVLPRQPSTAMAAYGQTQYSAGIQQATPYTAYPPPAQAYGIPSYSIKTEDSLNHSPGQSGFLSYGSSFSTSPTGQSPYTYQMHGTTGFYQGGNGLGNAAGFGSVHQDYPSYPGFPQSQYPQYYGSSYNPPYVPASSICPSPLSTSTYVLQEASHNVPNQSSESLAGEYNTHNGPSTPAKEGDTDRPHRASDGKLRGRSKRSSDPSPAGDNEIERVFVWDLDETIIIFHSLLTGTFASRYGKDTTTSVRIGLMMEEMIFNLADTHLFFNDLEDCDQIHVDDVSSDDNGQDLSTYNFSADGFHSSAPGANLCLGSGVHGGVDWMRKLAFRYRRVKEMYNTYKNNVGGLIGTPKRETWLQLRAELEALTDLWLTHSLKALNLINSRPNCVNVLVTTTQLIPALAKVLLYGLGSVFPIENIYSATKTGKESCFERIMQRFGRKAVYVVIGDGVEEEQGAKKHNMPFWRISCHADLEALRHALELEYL
Target sequence (Q15475 whole entry, looked up): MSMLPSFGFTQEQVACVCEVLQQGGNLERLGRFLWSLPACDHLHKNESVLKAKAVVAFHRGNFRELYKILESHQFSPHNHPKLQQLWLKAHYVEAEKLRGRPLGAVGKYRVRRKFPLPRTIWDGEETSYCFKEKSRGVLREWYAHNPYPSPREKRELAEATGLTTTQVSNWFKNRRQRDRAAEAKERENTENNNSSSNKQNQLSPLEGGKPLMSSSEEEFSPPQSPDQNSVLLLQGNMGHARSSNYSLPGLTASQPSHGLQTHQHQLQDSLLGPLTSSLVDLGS
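GST-Six1 + His-Eya2 (5X stock: 250/500 nM); Tris pH 8.0, 300 mM NaCl, 0.05% BSA, 0.02% Tween 20; GSH donor/Ni acceptor beads; 1 h 37 °C dark; AlphaScreen readout.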
TRPML1 inh: human mucolipin-1 channel inhibition; Q9GZU1; TRPML1-inducible cells, Ca2+ dye fluorescence, FDSS; active compounds read low; inhibition of EC80 agonist-evoked calcium signal; activity change, negative = inhibition, % (no concentration beside the values); 390,000 compounds, 0.02% hits; AID 624415; in the data active means activity change below about -50%; inconclusive means about -30% to -50%; inactive means above about -30%;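 also: stimulus is agonist 54-4 at its EC80 concentration; % is scaled to controls: 0 for no effect and ±100 for the full control effect; compound concentration not given in the record; the text of the record puts the active cut at -80%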
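Calcium fluorescence in TRPML1-DL cells induced overnight with Tet: a 110 s read after compound pin addition, then a 110 s antagonist read after challenge with 54-4 at 4 uM final (EC80).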
TRPML1 agonist: activates the human TRPML1 channel; Q9GZU1; TRPML1-expressing cells, Ca2+ dye fluorescence, FDSS; host cell line not named in the record; reference of the full effect not given here; activation, % (concentration not given with the values); 410,000 compounds, 0.12% hits; in the data active = activation above about 50%; inconclusive = about 30% to 50%; inactive = below about 30%; also: 0% is about no effect; the text of the record puts the active cut at 80%
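TRPML1-DL cells, Tet-induced overnight (~16 h, 37 degrees C), loaded 45-90 min at room temperature with Ca8 no-wash calcium dye plus quencher. FDSS fluorescence: 10 s baseline, compound pin-transfer, 110 s agonist read, then EC80 54-4 (4uM final) and 110 s antagonist read.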
An asterisk follows results filed as active.

`CCCc1cc(C(=O)O)c2ccccc2n1` gave D2 potentiator -2, CtBP-E1A inh 6, TRPV1 potentiator 20, Six1-Eya2 inh 5, TRPML1 inh 40 and TRPML1 agonist 0.6.
For O=C(C[C@H]1C[C@H](C(=O)N2CCCCC2)[C@@]2(CCc3ccccc3)c3[nH]c4cc(-c5ccco5)ccc4c3CCN2C1=O)NCCN1CCOCC1 the results were D2 potentiator 6, CtBP-E1A inh -6, Six1-Eya2 inh -4, TRPML1 inh -28 and TRPML1 agonist -0.1.
`O=C1OCCN1C(=O)[C@H]1[C@H](c2ccccc2)C(c2ccccc2)=NN1c1ccccc1` gave CtBP-E1A inh 25, Six1-Eya2 inh 12, TRPML1 inh -7 and TRPML1 agonist -0.7.
Screening COC(=O)C(C)Sc1ccc2nnc(CCNS(=O)(=O)c3ccccc3)n2n1 (stereo unspecified) returned D2 potentiator -9, TRPV1 potentiator -9, Six1-Eya2 inh 8, TRPML1 inh 6 and TRPML1 agonist 3.0.
COc1ncc(-c2ccc(N3C(c4ccsc4)=Cc4ccc(F)cc4C3CC(C)=O)cc2)cn1 (stereo unspecified) was read as CtBP-E1A inh 13, Six1-Eya2 inh 16 and TRPML1 agonist 0.0.
Screening O=C(Nc1ccc(COc2ccccc2)cc1)c1cccc([N+](=O)[O-])c1 returned D2 potentiator 2, CtBP-E1A inh 0, TRPV1 potentiator 8, Six1-Eya2 inh -4, TRPML1 inh -10 and TRPML1 agonist 2.0.
Screening Cc1ccc(S(=O)(=O)N(Cc2ccccc2)c2ccccn2)cc1[N+](=O)[O-] returned D2 potentiator -10, CtBP-E1A inh -21, TRPV1 potentiator 1, Six1-Eya2 inh -10, TRPML1 inh 5 and TRPML1 agonist 2.8.
For O=C(O)CCSC1CC(=O)N(c2ccccc2)C1=O (stereo unspecified) the results were D2 potentiator -6, CtBP-E1A inh 3, TRPV1 potentiator -16, Six1-Eya2 inh 3, TRPML1 inh -4 and TRPML1 agonist 1.3.
For CC1Oc2ccccc2N(Cc2cccc(F)c2)C1=O (stereo unspecified) the results were D2 potentiator -5, TRPV1 potentiator inconclusive and Six1-Eya2 inh 14.
Screening CCc1c(C)c2c(C)[nH]nc2oc1=O returned D2 potentiator -16, CtBP-E1A inh -11, TRPV1 potentiator inconclusive, Six1-Eya2 inh -14, TRPML1 inh -9 and TRPML1 agonist 0.5.
`COc1ccc(-c2cc(NC(C)=O)c3ncc(-c4cccc(C(F)(F)F)c4)n3c2)c(OC)c1` gave D2 potentiator -8, CtBP-E1A inh -14, Six1-Eya2 inh -13 and TRPML1 agonist -0.4.
Screening COc1ccccc1C(=O)NC(CCSC)C(=O)NCC(c1cccs1)N(C)C (stereo unspecified) returned D2 potentiator -1, CtBP-E1A inh 0, TRPV1 potentiator 0, Six1-Eya2 inh -8, TRPML1 inh 1 and TRPML1 agonist -0.3.
`O=C(CNC(=O)c1cccc(F)c1)N/N=C/c1cc(Br)ccc1OCc1ccccc1` gave D2 potentiator -3, CtBP-E1A inh -27, TRPV1 potentiator 18, Six1-Eya2 inh -9, TRPML1 inh 23 and TRPML1 agonist 6.3.
CC(=O)N1c2ccc(S(=O)(=O)N3CCCCC3)cc2CC1C(=O)NCc1ccc(N(C)C)cc1 (stereo unspecified) was read as D2 potentiator -8, CtBP-E1A inh -14, TRPV1 potentiator -10, Six1-Eya2 inh -12, TRPML1 inh -15 and TRPML1 agonist -1.2.
`O=C(Nc1ccccc1C(=O)O)c1cccc(NC(=O)c2ccccc2Br)c1` gave D2 potentiator 9, CtBP-E1A inh -10, TRPV1 potentiator inconclusive, Six1-Eya2 inh -7, TRPML1 inh 5 and TRPML1 agonist 0.7.
Screening O=C(N/N=C/C=C\c1ccc([N+](=O)[O-])cc1)c1cccnc1 returned D2 potentiator -1, CtBP-E1A inh -1, TRPV1 potentiator -5, Six1-Eya2 inh 15, TRPML1 inh 12 and TRPML1 agonist 1.1.
Clc1ccccc1OCCn1ccnc1 was read as D2 potentiator -3, CtBP-E1A inh 6, TRPV1 potentiator 6, Six1-Eya2 inh 1, TRPML1 inh -6 and TRPML1 agonist -0.5.
COc1ccc(NC(=O)c2cc(S(=O)(=O)N3CCCCC3)c[nH]2)cc1 was read as D2 potentiator 0, CtBP-E1A inh 3, TRPV1 potentiator 11, Six1-Eya2 inh -4, TRPML1 inh 0 and TRPML1 agonist 0.2.
Screening COc1ccccc1NC(=O)c1cnc(SCC(=O)NCC2CCCO2)n(C)c1=O (stereo unspecified) returned D2 potentiator -22, CtBP-E1A inh -14, TRPV1 potentiator -7, Six1-Eya2 inh -8, TRPML1 inh -8 and TRPML1 agonist -0.1.
CCCCc1cc(=O)oc2cc(C)cc(OCC(=O)N[C@@H](CSCc3ccccc3)C(=O)O)c12 was read as D2 potentiator 20, CtBP-E1A inh -3, TRPV1 potentiator 7 and Six1-Eya2 inh -8.
For O=C(Nc1ccccc1Br)C1CCN(S(=O)(=O)c2cccs2)CC1 the results were D2 potentiator -6, CtBP-E1A inh 8, Six1-Eya2 inh 6, TRPML1 inh -11 and TRPML1 agonist 0.4.
CC/C(=N\O)c1ccc(OC)c(OC)c1 was read as D2 potentiator -43, CtBP-E1A inh -2, TRPV1 potentiator 2, Six1-Eya2 inh -1, TRPML1 inh -11 and TRPML1 agonist -0.2.
Screening COCc1c(C(=O)NCCc2ccc(OC(F)F)cc2)oc2ccccc12 returned D2 potentiator -4, CtBP-E1A inh 14, Six1-Eya2 inh 8, TRPML1 inh 0 and TRPML1 agonist 0.3.
For O=C(COc1ccc(Cl)cc1Br)NC1CC1 the results were D2 potentiator -10, TRPV1 potentiator -3, Six1-Eya2 inh 5, TRPML1 inh 4 and TRPML1 agonist -0.4.
Screening Cc1ccc(C(=O)OCC(=O)N2CCCC2)cc1 returned D2 potentiator -1, CtBP-E1A inh 1, TRPV1 potentiator 2, Six1-Eya2 inh 8, TRPML1 inh 4 and TRPML1 agonist 0.3.
Cc1cccc2cc(CN(CCCO)C(=O)Nc3ccc(Cl)cc3)c(=O)[nH]c12 was read as D2 potentiator 14, CtBP-E1A inh 5, TRPV1 potentiator inconclusive, Six1-Eya2 inh -7, TRPML1 inh 11 and TRPML1 agonist 0.7.
CCOc1ccccc1N(C)C(=O)c1cn(C)c(=O)c2ccccc12 was read as D2 potentiator -8, CtBP-E1A inh 9, TRPV1 potentiator -6, Six1-Eya2 inh 6, TRPML1 inh 16 and TRPML1 agonist -0.7.
Screening Cn1c(CNC(=O)c2ccco2)nnc1SCC(=O)c1ccc(Br)cc1 returned D2 potentiator 2, CtBP-E1A inh -14, TRPV1 potentiator 9, Six1-Eya2 inh -3, TRPML1 inh -9 and TRPML1 agonist -0.7.
For O=C1C=CC(=O)N1CCNc1ncc(C(F)(F)F)cc1Cl the results were D2 potentiator -21, CtBP-E1A inh 10, TRPV1 potentiator -11, Six1-Eya2 inh 0, TRPML1 inh 3 and TRPML1 agonist 6.3.
`CC(C(=O)Nc1ccc(C#N)cc1)N(C)Cc1cccs1` (stereo unspecified) gave D2 potentiator -4, CtBP-E1A inh 4, TRPV1 potentiator inconclusive, Six1-Eya2 inh -3, TRPML1 inh 8 and TRPML1 agonist 0.6.
`O=C(Cc1ccc(Cl)c(Cl)c1)Nc1ccc(SC(F)F)cc1` gave D2 potentiator -4, TRPV1 potentiator -9, Six1-Eya2 inh 15, TRPML1 inh -12 and TRPML1 agonist 0.6.
`O=C(COc1ccc(Br)cc1)OCC(=O)c1ccc[nH]1` gave D2 potentiator -6, CtBP-E1A inh -17, Six1-Eya2 inh 8, TRPML1 inh 2 and TRPML1 agonist 0.2.
O=C(N/C(=C/c1ccc(Br)cc1)C(=O)N1CCCC1)c1ccccc1F was read as D2 potentiator 1, CtBP-E1A inh -6, TRPV1 potentiator -3, Six1-Eya2 inh 1, TRPML1 inh 1 and TRPML1 agonist -0.6.
CCNC(=S)N/N=C(\C)c1ccc2ccccc2c1OC(F)F was read as D2 potentiator -16, CtBP-E1A inh -28, TRPV1 potentiator -10, Six1-Eya2 inh -30, TRPML1 inh 41 and TRPML1 agonist 1.8.
Screening COc1cc(S(=O)(=O)N2CCCCCC2)ccc1-n1cnnn1 returned D2 potentiator -10, CtBP-E1A inh 12, TRPV1 potentiator 0, Six1-Eya2 inh 0, TRPML1 inh 4 and TRPML1 agonist 0.4.
CCc1ccc(NC(=O)c2ccc3nc(N)sc3c2)cc1 was read as D2 potentiator -29, CtBP-E1A inh 0, TRPV1 potentiator -8, Six1-Eya2 inh -15, TRPML1 inh -6 and TRPML1 agonist 0.3.
For Cc1cccc(OCC(=O)NN2C(=O)C3C4C=CC(O4)C3C2=O)c1 (stereo unspecified) the results were D2 potentiator -3, CtBP-E1A inh 4, TRPV1 potentiator 3, Six1-Eya2 inh 6, TRPML1 inh 33 and TRPML1 agonist -0.9.
For N#CC1=C2SCC(O)(c3ccccc3)N2C(=O)CC1c1cccs1 (stereo unspecified) the results were D2 potentiator 0, CtBP-E1A inh -4, TRPV1 potentiator -16, Six1-Eya2 inh -22, TRPML1 inh -3 and TRPML1 agonist 9.5.
CCOc1ccc(-n2c(SCC(N)=O)nc3c([nH]c4ccccc43)c2=O)cc1 was read as D2 potentiator 0, CtBP-E1A inh 1, TRPV1 potentiator inconclusive, Six1-Eya2 inh 23, TRPML1 inh -1 and TRPML1 agonist 0.0.
For CC(NC(=O)COC(=O)c1cccs1)c1ccccc1 (stereo unspecified) the results were D2 potentiator -6, CtBP-E1A inh 1, TRPV1 potentiator -14, Six1-Eya2 inh -6, TRPML1 inh 12 and TRPML1 agonist -0.3.
Screening CN(C)c1cccc(NC(=O)C2(C)Cc3c(-c4cccnc4)ccnc3O2)c1 (stereo unspecified) returned D2 potentiator -10, CtBP-E1A inh -14, Six1-Eya2 inh -6 and TRPML1 agonist -0.6.
Screening CN(C(=O)CN1CCC(NC(=O)C2CCCCC2)CC1)C1CCCCC1 returned D2 potentiator -2, CtBP-E1A inh 8, TRPV1 potentiator 0, Six1-Eya2 inh 4, TRPML1 inh 23 and TRPML1 agonist -0.8.
Screening COc1cccc(NC(=O)CN(C)C(=O)Cn2[nH]c(=O)c3ccccc3c2=O)c1 returned D2 potentiator -5, CtBP-E1A inh 3, TRPV1 potentiator -4, Six1-Eya2 inh 2, TRPML1 inh -3 and TRPML1 agonist -0.8.

4 entries out of the list, sorted by length of the SMILES, ascending:
Screening Cc1ccc(C(=O)OCC(=O)N2CCCC2)cc1 returned D2 potentiator -1, CtBP-E1A inh 1, TRPV1 potentiator 2, Six1-Eya2 inh 8, TRPML1 inh 4 and TRPML1 agonist 0.3.
CCc1ccc(NC(=O)c2ccc3nc(N)sc3c2)cc1 was read as D2 potentiator -29, CtBP-E1A inh 0, TRPV1 potentiator -8, Six1-Eya2 inh -15, TRPML1 inh -6 and TRPML1 agonist 0.3.
`CC(C(=O)Nc1ccc(C#N)cc1)N(C)Cc1cccs1` (stereo unspecified) gave D2 potentiator -4, CtBP-E1A inh 4, TRPV1 potentiator inconclusive, Six1-Eya2 inh -3, TRPML1 inh 8 and TRPML1 agonist 0.6.
`O=C(COc1ccc(Br)cc1)OCC(=O)c1ccc[nH]1` gave D2 potentiator -6, CtBP-E1A inh -17, Six1-Eya2 inh 8, TRPML1 inh 2 and TRPML1 agonist 0.2.
